FGF22 binding: shifts melting point of recombinant human FGF22; Q9HCT0; recombinant FGF22 thermal shift, SYPRO orange fluorescence; percent of sucrose octasulfate shift, DMSO zero; calls only at 9.99 µM; 340,000 compounds, 1.5% hits; AID 651658;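 active = melting point raised past a set limit in the mean and every replicate; inconclusive = no clear call; three in four hits are not shown here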
Target sequence (Q9HCT0 whole entry, looked up): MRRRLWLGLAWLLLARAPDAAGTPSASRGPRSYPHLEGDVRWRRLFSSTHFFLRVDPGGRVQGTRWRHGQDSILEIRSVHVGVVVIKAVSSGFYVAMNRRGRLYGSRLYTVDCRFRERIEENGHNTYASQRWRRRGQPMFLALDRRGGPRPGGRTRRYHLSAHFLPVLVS
HNF4A DNA FP: change in binding of human HNF4 alpha to DNA; P41235; HNF4a-FITC DNA binding, fluorescence polarization, 1 h; activity change, % at 10 µM; 360,000 compounds, 0.3% hits; in the data active = activity change above about 30%, passing the limit was not always enough;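 also: controls were the assay level and a saturating level of protein; the project sought stronger binding though the title names inhibitors; some compounds called inactive have numbers as strong as hits; positive values seem to mean higher polarization but the record does not say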
AF4-AF9 inh: inhibitors of human MLL-AF4/AF9 interaction | P42568 | AlphaScreen, biotin-AF4 peptide binding to FLAG-AF9 | inhibition, % at 10 µM | 350,000 compounds, 0.47% hits | AID 651704;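 active = every replicate reaching a set inhibition limit, whatever the replicate mean, cut at about 25% in these data; inconclusive = mean inhibition reaches that limit but some replicates miss it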;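 also: 0% = plate neutral control median and 100% = total signal loss; the record names both 10 and 1 µM as test concentration; the first replicate is given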
Target sequence (P42568 whole entry, looked up): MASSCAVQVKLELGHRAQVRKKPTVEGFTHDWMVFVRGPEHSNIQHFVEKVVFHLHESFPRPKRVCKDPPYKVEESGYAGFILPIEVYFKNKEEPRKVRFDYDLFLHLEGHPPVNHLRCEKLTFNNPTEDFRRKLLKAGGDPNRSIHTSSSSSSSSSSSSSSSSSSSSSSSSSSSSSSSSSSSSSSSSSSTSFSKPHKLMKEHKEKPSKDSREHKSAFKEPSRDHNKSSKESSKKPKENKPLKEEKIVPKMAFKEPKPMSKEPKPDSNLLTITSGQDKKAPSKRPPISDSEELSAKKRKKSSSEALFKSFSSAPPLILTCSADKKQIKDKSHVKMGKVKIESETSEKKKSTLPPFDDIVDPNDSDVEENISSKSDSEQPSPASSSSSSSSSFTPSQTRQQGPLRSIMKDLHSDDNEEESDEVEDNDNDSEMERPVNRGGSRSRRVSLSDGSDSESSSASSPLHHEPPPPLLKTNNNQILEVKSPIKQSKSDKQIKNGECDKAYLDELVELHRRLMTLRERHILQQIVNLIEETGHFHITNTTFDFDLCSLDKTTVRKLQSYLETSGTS
Ecoli growth: inhibitors of Escherichia coli growth; 330,000 compounds, 0.21% hits; OD600, 23 h; active compounds read low; OD600 absorbance (concentration not given with the values); AID 1053175;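 active = OD600 absorbance below the run mean of sample wells minus 3.6 SD, in any replicate, cut at about 0.56 in these data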;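 also: stock transfer was 300 nL into about 60 µL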
UCH37 inh: inhibitors of human deubiquitinating enzyme UCH37. Q9Y5K5. inhibition, % (no concentration beside the values). AID 588478. 330,000 compounds, 0.33% hits. purified proteasome/UCH37, Ub-AMC cleavage fluorescence;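 active = mean of two replicates above 20%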;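 also: 0% = compound-free wells with enzyme and 100% = wells lacking proteasome; stock transfer was 100 nL into about 20 µL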
Target sequence (Q9Y5K5 whole entry, looked up): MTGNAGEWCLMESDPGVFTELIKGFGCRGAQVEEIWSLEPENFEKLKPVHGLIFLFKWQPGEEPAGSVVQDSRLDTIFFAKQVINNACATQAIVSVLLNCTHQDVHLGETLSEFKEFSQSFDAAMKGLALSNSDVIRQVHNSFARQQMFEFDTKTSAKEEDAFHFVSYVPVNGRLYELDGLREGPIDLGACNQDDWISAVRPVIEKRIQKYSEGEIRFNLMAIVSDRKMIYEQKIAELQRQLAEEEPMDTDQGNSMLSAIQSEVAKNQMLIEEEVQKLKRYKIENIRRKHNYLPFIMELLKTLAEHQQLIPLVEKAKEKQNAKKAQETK
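Reagent: Ub-AMC substrate; assay system: Proteasome-associated human UCH37 deubiquitinase; controls: no-proteasome and no-compound wells; read-out: % inhibition of Ub-AMC cleavage fluorescence; timing: 30 min preincubation with enzyme, 25 min cleavage at room temperature; signal: AMC fluorescence from Ub-AMC cleavage, excitation 355 nm, emission 460 nm; buffer or medium: Tris-HCl pH 7.4 plus ovalbumin, ATP-MgCl2, DTT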
Vif A3G: HIV-1 Vif–A3G interaction blockers – biochemical, TR-FRET, GST-Vif 1-94, biotin-A3G peptide, dose response retest, primary screen (AID 1117319). TR-FRET GST-Vif / biotin-A3G peptide binding; higher % means a stronger effect; test concentration not given here; strong numbers were not always called active. inhibition, %; hits with a dose series show IC50 in µM. 260,000 compounds, 0.57% hits;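 active = above the screen mean plus three standard deviations and confirmed in dose response; inconclusive = results disagree or hit not tested in dose response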;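 also: Vif residues 1-94 fused to GST binding biotinylated APOBEC3G peptide 110-148; 0% = full assay without inhibitor and 100% = GST in place of GST-Vif; retest series ran down from 100 µM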
RanGTP-Imp inh: inhibitors of RanGTP-importin-beta interaction, primary screen, biochemical, FRET, CFP-Ran, YFP-importin-beta, homogeneous. cell-free CFP-Ran/YFP-importin-beta FRET ratio. inhibition, % (test concentration not listed). 300,000 compounds, 1.1% hits. AID 2216;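 active = most replicates above 15%; inconclusive = exactly half above 15%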;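 also: 0% = DMSO wells and 100% = Ran loaded with GDP instead of GTP; wells of about 40 µL received 100 nL stock; the first replicate is given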
* = called active by the depositor; i = inactive; ? = inconclusive; . = not tested or not shown. Not all compounds are listed; rates above refer to the full screens.

Values run as follows: AF4-AF9 inh	FGF22 binding	RanGTP-Imp inh	HNF4A DNA FP	Vif A3G	UCH37 inh	Ecoli growth
- O=C(NCc1ncc(C(F)(F)F)cc1Cl)Nc1ccccc1
    -3.7	i	2.7	-1.6	0%	2.7	0.63
- O=C(O)c1csc(-c2cccc(Cl)c2)n1
    -16	i	2.1	-0.4	29%	-1.1	0.73
- C=C1C(=O)[C@@]23[C@H](O)C[C@@H]4C(C)(C)CC[C@H](O)[C@]4(C)[C@@H]2C[C@H](O)[C@@H]1[C@H]3O
    -10	i	0.8	3.9	-1%	1.8	.
- Cc1csc(-c2cnn(-c3ccccc3)c2NC(=O)c2ccc(C(F)(F)F)cc2)n1
    .	.	1.8	-0.7	2%	-0.2	0.72
- COc1ccc(NC(=O)CSc2nnc(C3CC3)n2N)cc1
    .	.	2.0	6.5	-2%	2.1	0.66
- CC(C)Nc1nc(NCCOc2ccccc2Cl)c2sc(-c3ccccc3)cc2n1
    0.1	i	.	2.1	.	.	.
- CN1CCC(OC(=O)Cc2ccc(Cl)cc2)CC1
    1.8	i	2.6	3.3	.	2.2	0.69
- O=S(=O)(Cc1ccccc1Cl)NCCc1ccccc1
    -1.5	i	1.8	-1.4	?	1.4	0.75
- COc1ccc(C2/C(=C(\O)c3cccc(OC)c3)C(=O)C(=O)N2c2ccccn2)cc1 (stereo unspecified)
    .	.	3.0	3.0	9%	9.6	0.69
- O=C(O)c1ccc2ncsc2c1
    13	i	?	0.6	-4%	-1.7	0.68
- CN(c1ccccc1)S(=O)(=O)c1ccc(C(=O)NCCc2ccccc2)cc1
    -2.0	i	-1.7	-1.2	.	.	.
- Oc1[nH]c2ccccc2c1OCc1ccncc1
    .	.	-2.0	0.3	-1%	3.2	0.77
- CC(=O)c1ccc(-c2cccc(-c3cc(=O)oc4ccc(C(C)(C)C)cc34)c2)cc1
    -3.7	i	.	-3.1	-6%	1.2	0.75
- CN(CC(=O)Nc1ccccc1)CC(=O)Nc1ccc(F)cc1
    0.6	i	?	-0.4	-1%	-0.3	0.67
- O=S(=O)(NCc1ccccc1)NCc1ccccc1F
    -0.3	i	2.5	-2.5	1%	3.5	0.7
- Brc1ccc(N=C(c2ccccc2)c2ccncc2)cc1
    .	.	?	4.7	3%	1.5	0.65
- C(#CSCc1ccccc1)SCc1ccccc1
    -4.0	i	.	2.4	.	.	.
- O=C(COC(=O)COc1ccc(Br)cc1)NCc1ccccc1
    -1.2	i	.	-0.7	.	-1.9	0.73
- COc1cccc(Nc2nc(C)cc(C)c2C(N)=O)c1
    2.8	.	5.5	3.8	-7%	4.3	0.62
- CC(C)C(=O)Nc1ccc2oc(=O)ccc2c1
    -0.9	i	-0.2	1.4	.	-47	0.69
- CN(CC(=O)Nc1cccc(F)c1)CC(=O)Nc1cccc(S(N)(=O)=O)c1
    11	i	1.3	7.6	21%	0.7	0.69
- COc1ccccc1NC(=O)c1ccccc1-c1ccccc1C(=O)O
    1.8	i	-5.6	-1.3	.	6.4	0.67
- CCc1cc(C(=O)N2CCN(c3ncccn3)CC2)sc1C
    -1.8	i	-5.9	3.5	-3%	3.4	0.68
- CCN1C(=O)[C@@H]2[C@@H]3CN(S(=O)(=O)c4ccc(C)cc4)[C@@H](c4ccccc4F)[C@@H]3C(=O)C[C@@H]2C1=O
    -0.3	.	.	1.5	.	.	.
- CCCCC(=O)Nc1ccc(Br)cn1
    .	.	4.5	-3.7	-2%	2.2	0.71
- COc1ccc(NC2=Nc3ccccc3N[C@@]23C[C@H]2CCCC(=O)N4CC[C@@H](C3)[C@@H]24)cc1
    3.4	i	.	3.4	.	.	.
- CCc1cc2cccc(C)c2nc1SCC(=O)Nc1nonc1C
    -3.1	i	2.8	-0.6	33%	4.5	0.73
- CC(Oc1ccc(F)cc1)C(=O)Oc1ccc(N(C)S(=O)(=O)c2ccccc2)cc1 (stereo unspecified)
    -19	i	3.9	0.3	0%	0.5	0.7
- COc1cc(C(=O)Nc2cccc(C(C)=O)c2)cc(OC)c1OC
    -3.3	i	1.4	-0.3	-5%	1.5	0.7
- O=[N+]([O-])c1ccc(O)c(CNCc2ccccc2)c1
    -3.3	i	.	-2.0	.	.	.
- CCC(CC)NC(=O)c1cc([N+](=O)[O-])ccc1N1CCOCC1
    .	.	-1.0	-1.9	.	7.2	0.73
- CCOc1ccc(C(=O)NC(=S)Nc2cccc(S(=O)(=O)NC3=NCCC3)c2)cc1
    -0.6	i	0.2	8.4	8%	-0.7	0.69
- NNc1nnnc2c1sc1nc(N3CCOCC3)c3c(c12)CCCC3
    .	.	-3.4	.	1%	3.4	0.68
- COc1ccc(S(=O)(=O)Nc2nc3ccccc3s2)cc1
    .	.	0.6	-2.7	-3%	5.2	0.71
- Cc1ccc2[nH]cc(CCNC(=O)/C=C/c3ccco3)c2c1
    -4.1	i	2.4	-1.3	-13%	3.5	0.64
- O=C(O)CCC(=O)N(Cc1ccco1)c1nc(-c2ccccc2)cs1
    .	.	3.7	-2.9	12%	5.0	0.7
- CCCCc1c(C)nn(-c2nnc3c4ccccc4n(CC)c3n2)c1C
    .	.	1.4	-2.8	3%	-2.8	0.75
- CCOc1ccc(NC(=O)CSc2nnc(N)s2)c([N+](=O)[O-])c1
    -0.7	i	-3.9	2.2	-8%	4.2	0.69
- CC(=O)N1CCN(C(=O)C(Cc2ccccc2)NC(=O)c2ccccc2)CC1 (stereo unspecified)
    -0.2	i	.	4.6	-6%	2.3	0.69
- CCOc1ccc(NC(=O)CC2C(=O)N(c3ccccc3)C(=S)N2Cc2ccccn2)cc1 (stereo unspecified)
    .	.	-3.8	-1.6	-1%	6.1	0.7
- Cc1ccc(O)c(C(=O)c2cc(C(=O)NCCc3ccccc3)c(=O)n(CCc3ccccc3)c2)c1
    -4.0	i	?	5.7	.	1.9	0.7
- O=C(Cc1cccc2c(=O)cc(-c3ccccc3)oc12)OCCN1CCOCC1
    -1.3	i	.	1.3	.	.	.
- CC(C)NC(=O)c1ccccc1NC(=O)CS(=O)(=O)Cc1ccccc1
    3.0	i	-4.9	-0.1	1%	0.8	0.71
- O=C(NN1CCCCCC1)c1ccccc1F
    -25	i	.	-1.7	0%	.	.
- O=C(Nc1ccc2ncccc2c1)c1cc(Cl)ccc1Cl
    0.7	i	0.7	-0.1	.	-0.6	0.67
- CCN(C(=O)COc1ccc(N(C)S(=O)(=O)c2ccc(NC(C)=O)cc2)cc1)C1CCCCC1
    0.3	i	.	4.1	2%	0.3	0.67
- COCCNC(=S)N1CCC(NC(=O)Nc2ccc(C)cc2)CC1
    -1.0	i	-1.8	3.4	-2%	4.6	0.67
- CC(=O)Nc1ccc(S(=O)(=O)NCCC(=O)NC2CCCCCC2)cc1
    -15	i	.	-1.1	8%	-0.6	0.62
- Cc1ccc(S(=O)(=O)N2CCSC2c2ccco2)cc1 (stereo unspecified)
    .	.	-2.2	3.5	5%	-1.0	0.69
- O=C(COC(=O)C1=Cc2ccccc2OC1)NCc1ccccc1
    0.2	i	3.0	3.8	-3%	-11	0.65
- Cc1ccn2cc(-c3cccc(NS(C)(=O)=O)c3)nc2c1
    -1.6	i	-12	-0.3	0%	-26	0.67
- Cc1ccccc1NC(=O)Cc1nc(COC(=O)c2ccc([N+](=O)[O-])cc2)cs1
    -16	i	.	-0.9	6%	0.4	0.68
- Cc1cnc(NC(=O)Cc2ccccc2Cl)s1
    -1.5	i	-1.8	1.6	.	6.5	0.68
- C/C(=C/c1ccccc1)C(=O)N1CC(C)OC(C)C1 (stereo unspecified)
    -0.4	i	-2.4	2.8	-6%	4.4	0.71
- O=C(COC(=O)c1ccc[nH]c1=O)NCCc1ccc(F)cc1
    -3.7	i	-2.6	3.6	11%	-1.8	0.64
- Cc1cc(=O)[nH]c2c1c(-c1ccccc1)nn2C
    0.8	i	-0.7	0.3	.	1.7	0.69
- COc1ccccc1OCCCOc1c(C)cc(C)cc1Br
    .	.	0.7	-0.6	-6%	1.5	0.73
- O=C(COc1ccccc1[N+](=O)[O-])c1ccccc1
    -4.5	i	0.6	-2.7	9%	2.0	0.62
- Cc1cc(S(=O)(=O)N2CCCC(N3CCOCC3)C2)c(C)cc1Cl (stereo unspecified)
    -9.6	i	1.1	2.0	.	0.5	0.67
- Cc1nn(-c2ccc(Cl)cc2)c2sc(C(=O)c3c(N)n(C)c(=O)n(C)c3=O)cc12
    .	.	-0.8	-0.3	-6%	-32	0.75

(continued)
Values run as follows: AF4-AF9 inh	FGF22 binding	RanGTP-Imp inh	HNF4A DNA FP	Vif A3G	UCH37 inh	Ecoli growth
- O=C(C1CCC1)N1CCN(c2ccc(Cl)cc2)CC1
    -16	i	-4.5	-4.4	.	1.2	0.66
- CCOc1ccc2c(c1)sc(N)[n+]2Cc1cc(C)cc2cccnc12
    .	.	-3.9	0.1	.	-3.1	0.6
- Cc1nc(N)nc(C)c1Cc1ccccc1
    .	.	-2.3	-6.0	7%	6.8	0.66
- O=C(NC(=O)c1ccccc1)Nc1ccccc1
    -3.0	i	-3.1	-2.2	-6%	1.2	0.68
- Cc1ccc(C)c(-n2cc(CN3CCCN(C=O)CC3)c(-c3ccccc3)n2)c1
    4.1	i	3.0	4.3	-6%	1.5	0.7
- O=C(Nc1cnn(Cc2ccc(Cl)cc2)c1)C1CCCC1
    .	.	2.4	0.9	1%	3.6	0.72
- O=C(O)/C=C/C(=O)NCCC1=CCCCC1
    -1.5	i	3.5	-1.9	30%	8.2	.
- CNC(=O)CSc1nc2sccc2c(=O)n1-c1ccccc1
    -2.7	i	0.3	3.3	?	0.1	0.63
- CCCOC(=O)Nc1ccc(S(=O)(=O)Nc2ncccn2)cc1
    -3.4	i	-1.6	-0.6	-7%	0.6	0.67
- COC(=O)[C@]1(C)N[C@H](c2ccc(SC3CCCCC3)cc2)[C@@H]2C(=O)N(C)C(=O)[C@@H]21
    -1.8	i	?	-6.3	.	0.8	.
- CCC1CCCCN1CCCNC(=O)c1cc2c(Cl)nc3ccccc3c2s1 (stereo unspecified)
    11	i	3.8	1.3	.	5.4	0.68
- CC(=O)Oc1ccc2c(c1)O/C(=C\c1ccncc1)C2=O
    .	.	-203	-2.1	-7%	.	.
- Cc1ccc(C(=O)N(Cc2ccco2)c2c(N)n(Cc3ccccc3)c(=O)[nH]c2=O)cc1
    -2.2	i	.	3.2	3%	.	.
- NC(=O)COC(=O)CN1C(=O)C2CCCCC2C1=O (stereo unspecified)
    .	.	1.1	4.4	.	3.1	0.69
- CCCOc1ncnc2c1[nH]c1ccc(OC)cc12
    -5.2	i	-0.1	6.2	.	-30	0.65
- O=C(CN1CCOCC1)Nc1cccc(C(=O)Nc2cccc(C(F)(F)F)c2)c1
    .	.	2.1	0.7	-4%	3.9	0.72
- Cc1ccc(S(=O)(=O)NCCCCCC(=O)Nc2nccs2)cc1
    .	.	-0.5	1.0	?	6.6	0.67
- CC(C)n1c(O)c(N=NC(=O)c2ccccc2NS(=O)(=O)c2cccs2)c2ccccc21
    .	.	8.7	0.8	17%	6.0	0.74
- OC1(c2ccc(F)cc2)CCN(Cc2ccccc2)C1 (stereo unspecified)
    3.0	i	0.3	2.8	15%	1.2	0.69
- NC(=O)C1(Nc2ccc(-c3ccc(Cl)cc3)cc2)CCCC1
    -3.2	i	.	-0.9	3%	.	.

High-throughput results (PubChem BioAssay)
